Source: PubChem BioAssay (ICCB-Longwood Screening Facility, Harvard Medical School)
GIV Gai3 FP = inhibitors of GIV GBA-motif binding to rat Galpha-i3; P08753; Galpha-i3/FITC-GIV peptide fluorescence polarization, 90 min; hits give low values; scaled: aluminum fluoride 0%, vehicle 100%; percent of control (FP), % (concentration not given with the values); actives 0.42% (n = 210,000); AID 1224905;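 active = replicate mean at 85% of control or lower, very high polarization wells dropped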;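 note: wells of about 15 µL received 100 nL stock; the first replicate is given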
Target sequence (P08753 whole entry, looked up): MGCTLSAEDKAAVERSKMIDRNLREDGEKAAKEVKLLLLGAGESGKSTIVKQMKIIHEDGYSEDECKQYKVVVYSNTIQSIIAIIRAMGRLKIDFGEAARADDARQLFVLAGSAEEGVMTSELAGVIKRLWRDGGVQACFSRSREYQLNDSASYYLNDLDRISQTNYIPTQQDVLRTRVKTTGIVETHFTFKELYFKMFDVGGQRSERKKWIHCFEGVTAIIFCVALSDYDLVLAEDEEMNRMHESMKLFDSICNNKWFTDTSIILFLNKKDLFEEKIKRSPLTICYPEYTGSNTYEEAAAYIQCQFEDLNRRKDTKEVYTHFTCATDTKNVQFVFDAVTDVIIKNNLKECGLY
HCMV NEC inh = inhibitors of HCMV UL50-UL53 nuclear egress complex interaction; AID 1918969; actives 0.15% (n = 190,000); HTRF UL50-UL53 interaction, normalized percent inhibition; inhibition, % (test concentration not listed);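 active = both replicates at 50% or more, plus weaker picks with an unusually low signal ratio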;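 note: stock transfer was 100 nL into about 20 µL; 0% = negative control wells and 100% = wells with untagged competitor protein; inactives centre near -12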
Sa growth 42C = S. aureus growth inhibition. relative growth, % (no concentration beside the values). AID 720641. S. aureus RN4220 growth, OD600, 20 h, 42 °C; hits give low values. actives 0.53% (n = 170,000);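 active = growth at 42 °C up to 50% and 20 or more points under that at 30 °C, or under 10% at both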;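 note: 300 nL library stock went into each well; scaled to the means of positive and negative controls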
Sa growth 42C second temp = further read-out of Sa growth 42C, marked with its call; relative growth, %; measured here: growth at 30 °C;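 optical density after 20 h as mean of two plates; 100% = untreated growth and lower means inhibition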
Numbers without * were called inactive; x = not tested or not shown; & = joins results of further samples.

The line under a structure holds: GIV Gai3 FP, HCMV NEC inh, Sa growth 42C, Sa growth 42C second temp
- CCC(C)NC(=O)c1cc2n(n1)CC(C)(C(=O)NC1CCCCC1)N(C)C2=O (stereo unspecified)
    101.3, -8.3, x, x
- CCC(C)NC(=O)c1cc2c(Cl)ccc3c2n1CC(CC)O3 (stereo unspecified)
    106.8, 10.3, x, x
- CCN(CC)C(=S)Nc1ccsc1C(=O)OC
    105.8, x, 90.9, 87.0
- O=C(COC(=O)C1CCC(N2C(=O)C3C4C=CC(C4)C3C2=O)CC1)c1ccc(F)cc1 (stereo unspecified)
    101.5, -5.2, 124.4, 83.4
- CCc1nn(CC(=O)N(CC)Cc2ccccc2)c(=O)c2cc3sccc3n12
    100.6, -29.4, 101.7, 81.4
- O=S(=O)(Nc1cc(Br)c(O)c2ccccc12)c1ccc(Cl)cc1
    x, 7.5, 72.1, 41.5
- N#CCC(=O)N/N=C/c1c(-c2ccccc2)n(-c2ccccc2)c2ccccc12
    x, -1.2, 77.8, 91.8
- O=C(Nc1cccc(Cl)c1)c1cc(-c2ccccc2)on1
    100.5&113.5, 8.0, 92.9&108.5, 81.8&100.5
- CCOC(=O)c1c(C)[nH]c(C(=O)N2CCCC(C(=O)N3CCOCC3)C2)c1C (stereo unspecified)
    98.0, -20.8, x, x
- CCOC(=O)COc1ccc(C)cc1C(=O)c1ccn2nc(-c3ccc(Cl)cc3)cc2n1
    117.2&94.5, 8.4&-30.7, 101.1, 79.3
- COc1cccc(CNC(=O)c2cnn3c(C)c4c(nc23)CCCC4)c1
    107.3, 4.0, 96.4, 87.5
- Cc1cccc(C(=O)Nc2nnc(S(=O)(=O)N(C)Cc3ccc(Cl)cc3)s2)c1
    98.4, x, 93.8, 82.5
- COc1ccc(Br)c(C(=O)NC(c2ccccc2)c2nnc(-c3ccccc3)o2)c1 (stereo unspecified)
    95.1, -19.7, x, x
- CC(C)(C)n1nnnc1C(c1cc2cc3c(cc2[nH]c1=O)OCO3)N(Cc1ccccc1)Cc1cccnc1 (stereo unspecified)
    106.9, -17.1, 92.4, 91.7
- Cc1ccc(Cl)cc1-n1ncc2c(N3CCCCCC3)ncnc21
    101.4, x, 106.7, 65.1
- Fc1ccccc1-c1noc(NC2CCCC2)n1
    105.3, 1.0, x, x
- COCCCNC(=O)CCCn1c(=O)c2ccccc2n(CC(=O)Nc2ccc(C)cc2Cl)c1=O
    99.9, -9.9, 110.6, 90.1
- Cc1cc(C)c2c(-n3cccc3)nn(CC(=O)NCc3cccc(Cl)c3)c2n1
    104.2, -28.9, x, x
- CCC(=O)Nc1sc2c(c1C(=O)NC)CCC2
    103.3, 8.3, 107.8, 92.6
- Cc1ccc(-n2nc3c(N4CCC(C(=O)NC5CCC(C)CC5)CC4)nnc(C)c3c2C)cc1 (stereo unspecified)
    109.2, x, 85.0, 87.4
- O=C(CSc1nnc(-c2ccc3c(c2)OCO3)o1)NC(=O)NC1CCS(=O)(=O)C1 (stereo unspecified)
    x, -10.1, 51.9, 81.3
- COc1ccc(CNC(=O)c2ccc(-c3nc(CSc4ccccc4)c(C)o3)cc2)cc1
    111.4, x, 136.8, 90.6
- Cc1cccc(C(=O)Nc2ccccc2OCc2cc(=O)n3c(C)csc3n2)c1
    98.7, -31.7, 99.0, 87.2
- Cc1ccc(-n2nc(C)c3c(C(F)(F)F)cc(-c4ccco4)nc32)cc1
    103.3, -32.4, 89.7, 89.3
- COc1ccc(N=C/C(Br)=C/c2ccccc2)cc1OC
    x, -8.4, 75.7, 89.0
- CC(C)C(C)(C#N)NC(=O)CN1CCN(c2cccc(Cl)c2)CC1 (stereo unspecified)
    x, -12.1, 92.5, 87.3
- O=C(Nc1ccccc1)Nc1csc2ccccc12
    106.4, -10.3, 86.9, 72.4
- N#Cc1cc(Br)ccc1N=C1CCCN1c1cccc(Cl)c1
    105.2, x, 81.5, 80.1
- CCOc1ccccc1C1Nc2ccccc2-n2cc3c(=O)n(C)c(=O)n(C)c3c21 (stereo unspecified)
    104.8, 2.0, x, x
- Cc1ccc(Cl)cc1N1CCN(CCCNC(=O)c2c(-c3ccncc3)noc2C)CC1
    98.7, -5.5, x, x

Brought forward from above: 2 entries; new compounds follow.
The line under a structure holds: GIV Gai3 FP, HCMV NEC inh, Sa growth 42C, Sa growth 42C second temp
- CCOc1ccccc1C1Nc2ccccc2-n2cc3c(=O)n(C)c(=O)n(C)c3c21 (stereo unspecified)
    104.8, 2.0, x, x
- Cc1ccc(Cl)cc1N1CCN(CCCNC(=O)c2c(-c3ccncc3)noc2C)CC1
    98.7, -5.5, x, x
- C/C(=N/NC(=O)Cc1cc(=O)[nH][nH]1)c1ccc(Cl)cc1
    100.2, -28.1, 82.7, 57.7
- COc1ccc(Nc2c3c(nc4ccc(NC(=O)C5CC5)cc24)CCCC3)cc1OC
    103.8, x, 105.2, 83.5
- O=C(NCC1CCCO1)c1nnc(C(=O)Nc2ccc(F)cc2)s1 (stereo unspecified)
    101.0, -29.4, x, x
- O=C(CSc1nnc(CNC(=O)c2c(F)cccc2Cl)o1)Nc1ccccc1F
    103.8, -15.6, 103.6, 85.0
- Cc1cc(N2CCC(C)CC2)nc2ccc(NC(=O)c3cccnc3)cc12
    104.5, -14.5, x, x
- CCN(CC)C(=O)N1CCc2ccccc2C1CN1C(=O)c2ccccc2C1=O (stereo unspecified)
    x, -44.1, 106.4, 95.0
- O=C(Nc1cccnc1)c1cc2c(=O)[nH]c3ccccc3c2s1
    97.1, x, 94.4, 93.3
- CCOC(=O)C1=C(C)NC(=O)NC1c1ccccc1 (stereo unspecified)
    95.0, -30.2, 92.7, 105.3
- CC(C)NC(=O)/C=C/c1cn(-c2ccccc2)nc1-c1cccs1
    x, -13.6, 83.7, 91.0
- COc1cccc(CNC(=O)C2(c3cccs3)CCOCC2)c1
    96.0, x, 128.0, 90.9
- CN(CCNC(=O)CC1CCN(S(=O)(=O)c2ccccc2)CC1)C1CCCCC1
    96.8, -31.3, x, x
- O=S(=O)(c1ccc(Br)cc1)N1CCCCCC1
    x, -10.6, 88.5, 88.3
- Cc1nc2nc(SCC(=O)NC3CCCC(C)C3C)nn2c(C)c1Cc1ccccc1Cl (stereo unspecified)
    102.6, x, 109.8, 78.1
- O=C(NC1CC1)C1CCN(c2nc3ccccc3nc2C(F)(F)F)CC1
    105.5, -28.3, x, x
- Cc1cc(C)n(-c2cc(Nc3ccc(C)c(C)c3)ncn2)n1
    102.1, -31.0, x, x
- CCOC(=O)c1cccc(NC(=O)Cn2nnc(-c3ccc(C)cc3)n2)c1
    104.7, -3.2, 101.2, 75.6
- CS(=O)(=O)N1CCc2cc(C(=O)N3CCN(c4ccccc4)CC3)ccc21
    100.0, -0.8, 103.7, 91.1
- COc1ccc(N2C(=O)CCS2(=O)=O)cc1S(=O)(=O)N(C)C1CCS(=O)(=O)C1 (stereo unspecified)
    99.1, 2.8, x, x
- COc1ccccc1CNC(=O)c1ccc2c(c1)N(Cc1ccc(C)cc1)CCS2
    104.1, -12.7, 109.4, 92.3
- COc1ccc(CNC(=O)c2cc3c(s2)-c2c(C)cccc2OC3)cc1
    102.6, -38.7, 105.3, 91.4
- COC(=O)c1sccc1N(S(=O)(=O)c1ccccc1)S(=O)(=O)c1ccccc1
    x, -17.4, 109.8, 85.6
- CC(C)N(Cc1ccccc1)C(=O)CSc1nnc(-c2ccccc2Br)o1
    x, 1.0, 91.9, 67.1
- COc1ccc(CCN=Cc2ccc3c(c2)OCO3)cc1OC
    102.7, -11.1, 86.6, 91.9
- O=C(COc1ccc(Cl)cc1)NCc1nnc(SCC(=O)Nc2cccc(F)c2)o1
    96.3, x, 117.4, 77.1
- COc1ccccc1-c1nn2c(=O)cc(CN3CCN(C(=O)/C=C/c4ccccc4)CC3)nc2s1
    106.5, x, 86.8, 82.7
- COC(=O)c1ccc2c(c1)NC(=O)C(N(CC(C)C)CC(C)C)S2 (stereo unspecified)
    105.5, -3.9, 96.2, 92.7
- O=S(=O)(c1cccc(Cl)c1)n1ccnc1
    95.3, -4.3, x, x
- CCc1ccc(NC(=O)C(=O)NCC(c2cccnc2)N2CCN(C)CC2)cc1 (stereo unspecified)
    110.1, 3.4, 92.7, 88.6
- O=C(c1cc2ccccc2[nH]1)N1CCC2(CC1)Nc1ccccc1-n1cccc12
    109.3, -37.1, x, x
- CC1CN(C(=O)CNC(=O)COc2ccccc2)CC(C)O1 (stereo unspecified)
    x, -6.3, 103.1, 89.3

3 compounds from above, ordered by count of non-hydrogen atoms, highest first.
The line under a structure holds: GIV Gai3 FP, HCMV NEC inh, Sa growth 42C, Sa growth 42C second temp
- Cc1nc2nc(SCC(=O)NC3CCCC(C)C3C)nn2c(C)c1Cc1ccccc1Cl (stereo unspecified)
    102.6, x, 109.8, 78.1
- CC(C)NC(=O)/C=C/c1cn(-c2ccccc2)nc1-c1cccs1
    x, -13.6, 83.7, 91.0
- COc1cccc(CNC(=O)C2(c3cccs3)CCOCC2)c1
    96.0, x, 128.0, 90.9

Entries shown so far that have two or more sulfur atoms:
The line under a structure holds: GIV Gai3 FP, HCMV NEC inh, Sa growth 42C, Sa growth 42C second temp
- CCN(CC)C(=S)Nc1ccsc1C(=O)OC
    105.8, x, 90.9, 87.0
- Cc1cccc(C(=O)Nc2nnc(S(=O)(=O)N(C)Cc3ccc(Cl)cc3)s2)c1
    98.4, x, 93.8, 82.5
- O=C(CSc1nnc(-c2ccc3c(c2)OCO3)o1)NC(=O)NC1CCS(=O)(=O)C1 (stereo unspecified)
    x, -10.1, 51.9, 81.3
- COc1ccc(N2C(=O)CCS2(=O)=O)cc1S(=O)(=O)N(C)C1CCS(=O)(=O)C1 (stereo unspecified)
    99.1, 2.8, x, x
- COC(=O)c1sccc1N(S(=O)(=O)c1ccccc1)S(=O)(=O)c1ccccc1
    x, -17.4, 109.8, 85.6

Next section:
The line under a structure holds: GIV Gai3 FP, HCMV NEC inh, Sa growth 42C, Sa growth 42C second temp
- CCc1ccc(CNC(=O)c2ccc3nc(C(C)C)oc3c2)cc1
    99.1, x, 101.2, 93.1
- CC(NC(=O)CSc1cccc[n+]1[O-])C1CC2CCC1C2 (stereo unspecified)
    x, -4.2, 94.1, 95.5
- CN1CCN(CCCNC(=O)c2cc3c(=O)[nH]c4ccccc4c3n2C)CC1
    100.9, 1.3, 111.8, 93.4
- COc1ccccc1Oc1cc(C)nc2ncnn12
    x, -14.6, 105.2, 91.6
- COC(=O)C1CCN(S(=O)(=O)c2c(C)c(C)cc(C)c2C)CC1
    107.5, -5.7, 101.2, 106.5
- COc1ccc(N2CCN(CC(O)COc3ccc(C(C)(C)C)cc3)CC2)cc1 (stereo unspecified)
    100.7, -24.3, 126.9, 95.4
- Cc1nc2nc(NCc3ccc(Cl)cc3)[nH]n2c(=O)c1CCC(=O)Nc1nccs1
    97.9, -13.7, x, x
- O=C1c2ccccc2S(=O)(=O)N1Cc1ccc2nonc2c1
    102.7, -31.3, 122.8, 98.1
- Cc1nc2ccc(S(=O)(=O)NC(CC(C)C)C(=O)N3CCN(c4ccccc4)CC3)cc2s1 (stereo unspecified)
    100.1, -2.4, 106.8, 90.8
- Cc1ccccc1C(=O)n1nc(-c2ccco2)nc1NCc1ccc(Cl)cc1
    98.9, -39.7, 110.1, 85.1
- N#Cc1c(C(F)(F)F)cc(C2CC2)nc1SCCN1CCCCC1
    x, -1.3, 99.3, 89.9
- Cn1c(SCc2cnc(-c3ccccc3)s2)nnc1C1COc2ccccc2O1 (stereo unspecified)
    x, -3.8, 97.0, 89.4
- CCOC(=O)c1nc(Nc2ccc(C(=O)OC)cc2)c2ccccc2n1
    101.3, -52.7, 97.0, 95.1
- CN(C)c1cc(Nc2ccc(-c3ccccc3)cc2)c([N+](=O)[O-])c2nonc12
    105.7, -10.9, x, x
- O=C(c1ccc2c(c1)C(=O)N(Cc1ccco1)C2=O)N1CCOCC1
    101.5, x, 100.9, 94.0
- CCCCS(=O)(=O)NN1C(=O)NC(C)(c2ccccc2)C1=O (stereo unspecified)
    x, -6.4, 114.0, 82.3
- CSc1ncc(C(=O)NCc2ccc(F)cc2)c(-c2ccccc2)n1
    98.9, x, 98.5, 98.7
- CSc1ccc2c(c1)N(CCC1CCCCN1C)c1ccccc1S2 (stereo unspecified)
    100.0&99.5, -25.4&-23.5&-1.9&-42.3&-27.7, 84.6&94.0, 55.8&76.1
- Cc1[nH]c(=O)[nH]c(=O)c1S(=O)(=O)N(CC(C)C)CC(C)C
    108.7, 10.4, 93.5, 98.1
- Cn1c(-c2cccnc2)nc2c1c(=O)[nH]c(=O)n2Cc1ccccc1
    x, -27.8, 92.2, 83.3
- CC1=NN(c2ccccc2)C(c2ccc(OCC(=O)NCCC3=CCCCC3)cc2)C1 (stereo unspecified)
    102.8, x, 108.1, 82.7
- Cc1nc2nc[nH]n2c(=O)c1CCC(=O)Nc1ccc(F)cc1
    105.5, -7.2, 96.4, 83.6
- CN1c2ccccc2C(C)(C)C12Cc1cc(NS(=O)(=O)c3ccc(Cl)cc3)ccc1O2 (stereo unspecified)
    101.5, x, 90.1, 58.8
- CC(=O)c1cccc(NC(=O)CCS(=O)(=O)c2ccc(Br)s2)c1
    109.4, 2.7, 103.1, 82.7
- CCN(CC)S(=O)(=O)c1ccc(C(=O)OCCN2C(=O)CCC2=O)cc1
    98.1, 2.9, 114.7, 88.0
- CN(CCS(=O)(=O)c1ccc(Cl)cc1)Cc1cccnc1
    100.4, 4.2, 102.3, 84.4
- CCNc1ncnc2sc3c(c12)CCC3
    109.4, x, 91.8, 59.8
